Calb FLC: C. albicans growth inhibition with fluconazole, primary screen, CaCi-2 strain, Alamar Blue fluorescence | C. albicans CaCi-2 (fluconazole-resistant clinical isolate) + fluconazole, 48 h | growth inhibition, % (concentration not given with the values) | 300,000 tested, 0.57% active;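 active means most replicates above 75%; inconclusive means exactly half above 75%; inactive means most below 75%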;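 further: all wells also contain fluconazole at 8 µg/ml as a sub-toxic cotreatment; 0% = median of DMSO wells and 100% = median of geldanamycin control wells; wells of about 8 µL received 7.5 nL stock; the first replicate is given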
T cruzi repl: inhibitors of intracellular T. cruzi growth, primary screen, luminescence, NIH3T3 host cells | T. cruzi beta-gal in NIH3T3, 90 h | inhibition, % (concentration not given with the values) | 300,000 tested, 1.4% active | AID 1885, 2009;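 active means mean inhibition across valid replicates above about 55%, limit read from the data; inconclusive means mean below that limit but half or more replicates reach it; inactive means mean below it, under half of replicates reach it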;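 further: signal also drops with host cell toxicity which is not excluded here; 0% = plate median of DMSO wells and 100% = zero luminescence signal; higher percent means less beta-gal luminescence so fewer parasites; stock transfer was 50 nL into about 50 µL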
UCH37 DUB inh: inhibitors of human UCH37 deubiquitinase, primary screen, biochemical, Ub-AMC cleavage, fluorescence | 330,000 tested, 0.33% active | purified proteasome/UCH37 | inhibition, % (no concentration beside the values) | AID 588478, 2011 | Ubiquitin carboxyl-terminal hydrolase isozyme L5 (Homo sapiens), Q9Y5K5;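 active means mean of two replicates above 20%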;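 further: 0% = compound-free wells with enzyme and 100% = wells lacking proteasome; stock transfer was 100 nL into about 20 µL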
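Test system – human UCH37 enzyme supplied as purified proteasome complex · Incubation – 30 min preincubation with enzyme, 25 min cleavage at room temperature · Detection – AMC fluorescence from Ub-AMC cleavage, excitation 355 nm, emission 460 nm · Benchmarks – no-proteasome wells (full inhibition) and compound-free wells (no inhibition)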
Beta apoptosis: inhibitors of cytokine-induced beta cell apoptosis, primary screen, luminescence; INS-1E cytokine-induced death, ATP luminescence, 48 h; percent of positive-control rescue, neutral wells zero; protection from apoptosis, % (no concentration beside the values); 300,000 tested, 0.8% active;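 active means all replicates at 75% or more, or half of them and the mean; inconclusive means half reach 75% but not the mean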;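 further: 0% = cytokine-treated negative control wells and 100% = positive control rescue; higher means more ATP so stronger rescue from cytokine killing; wells of about 40 µL received 100 nL stock; the first replicate is given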
A1 inh: caspase 3/7 activation in MEF A1-2A-BIM cells, primary screen, A1 inhibitor project, cell-based, luminescence, HTS; 330,000 tested, 0.066% active; caspase activation, % (test concentration not listed); Caspase-Glo 3/7 luminescence, 3 h; percent of clofoctol response, vehicle zero;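 active means over half of replicate activation scores above 10%, or exactly half above 10 with the replicate mean above 10; inconclusive means replicate mean below 10 yet half the replicates above 10; inactive means over half of replicates below 10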;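 further: wells of about 30 µL received 50 nL stock; many hits fall short of the cut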
RanGTP-Imp inh: inhibitors of RanGTP-importin-beta interaction, primary screen, biochemical, FRET, CFP-Ran, YFP-importin-beta, homogeneous | 300,000 tested, 1.1% active | cell-free CFP-Ran/YFP-importin-beta FRET ratio | AID 2216, 2009 | Ran GTPase (GTP-bound) - importin-beta complex | inhibition, % (test concentration not listed);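 active means most replicates above 15%; inconclusive means exactly half above 15%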;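 further: 0% = DMSO wells and 100% = Ran loaded with GDP instead of GTP; wells of about 40 µL received 100 nL stock; the first replicate is given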
LANA-H2A inh: blockers of LANA interaction with H2A/H2B – biochemical, FP readout, HTS, primary screen | 320,000 tested, 0.6% active | cell-free LANA-H2A/H2B peptide, fluorescence polarization | inhibition, % (concentration not given with the values); in the data active means inhibition mostly above about 10%, no sharp cut-off; inactive means mostly below about 6.7%;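 further: stock transfer was 7.5 nL into about 10 µL; 0% = median of vehicle wells and 100% = median of positive control wells; one replicate is shown; the record names a cut of 25% in any replicate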
Target sequence (Q9QR71 whole entry, looked up): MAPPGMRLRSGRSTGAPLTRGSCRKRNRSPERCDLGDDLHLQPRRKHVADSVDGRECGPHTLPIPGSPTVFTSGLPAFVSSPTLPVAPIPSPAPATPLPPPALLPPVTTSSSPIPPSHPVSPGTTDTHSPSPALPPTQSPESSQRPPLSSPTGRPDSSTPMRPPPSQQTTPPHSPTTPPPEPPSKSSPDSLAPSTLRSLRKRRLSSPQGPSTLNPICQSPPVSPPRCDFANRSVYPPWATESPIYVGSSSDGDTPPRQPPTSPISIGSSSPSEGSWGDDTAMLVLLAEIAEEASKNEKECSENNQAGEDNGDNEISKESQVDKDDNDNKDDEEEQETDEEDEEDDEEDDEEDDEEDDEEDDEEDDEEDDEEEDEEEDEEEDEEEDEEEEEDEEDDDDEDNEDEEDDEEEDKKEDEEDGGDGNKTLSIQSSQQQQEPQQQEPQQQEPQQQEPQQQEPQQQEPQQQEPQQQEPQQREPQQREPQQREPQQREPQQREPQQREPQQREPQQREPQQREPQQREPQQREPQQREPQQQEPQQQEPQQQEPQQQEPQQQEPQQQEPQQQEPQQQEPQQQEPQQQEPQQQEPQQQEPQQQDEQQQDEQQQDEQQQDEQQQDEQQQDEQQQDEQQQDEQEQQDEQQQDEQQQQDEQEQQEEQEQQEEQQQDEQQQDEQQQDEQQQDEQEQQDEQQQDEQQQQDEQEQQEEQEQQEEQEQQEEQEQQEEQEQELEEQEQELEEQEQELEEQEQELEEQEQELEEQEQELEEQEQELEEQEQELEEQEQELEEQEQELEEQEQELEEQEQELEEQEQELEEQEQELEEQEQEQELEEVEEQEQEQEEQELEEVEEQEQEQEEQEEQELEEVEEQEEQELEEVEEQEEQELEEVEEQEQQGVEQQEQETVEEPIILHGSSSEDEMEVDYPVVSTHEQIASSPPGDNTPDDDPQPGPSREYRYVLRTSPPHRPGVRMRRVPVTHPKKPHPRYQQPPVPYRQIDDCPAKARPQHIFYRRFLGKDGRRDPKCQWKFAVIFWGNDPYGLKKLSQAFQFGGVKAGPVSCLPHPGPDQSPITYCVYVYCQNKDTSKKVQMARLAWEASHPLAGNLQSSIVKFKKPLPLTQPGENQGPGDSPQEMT
B2AR ag: beta2AR agonists driving receptor internalization, primary screen, cell-based, FAP fluorogen, flow cytometry; Beta-2 adrenergic receptor (Homo sapiens), P07550; Am2.2-beta2AR cells; reference of the scale not given here; response, % (no concentration beside the values); 340,000 tested, 0.43% active;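 active means response above a set limit, near 3 SD of response in nonfluorescent compounds, cut at about 42% in these data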;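 further: stock transfer was 100 nL into about 11 µL; a reference agonist was the positive control; negative values mostly stem from fluorescent compounds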
The depositor's hits bear a star; ? = inconclusive; . = no result given.

compound,Calb FLC,T cruzi repl,UCH37 DUB inh,RanGTP-Imp inh,Beta apoptosis,LANA-H2A inh,A1 inh,B2AR ag
Cc1cc(C)c(-n2nnnc2SCC(=O)c2cc3ccccc3o2)c(C)c1,-3,31,3.6,1.5,4,-3.3,-1.6,-6
COC(=O)c1c(C)[nH]c(C(=O)COC(=O)c2c(C)noc2C)c1C,.,.,0.7,.,7,2.3,-1.7,-3
NC(=O)c1ccc(SCC(=O)OCC(=O)N2CCCCC2)c([N+](=O)[O-])c1,4,-8,3.1,-1.2,-2,-5.9,0.3,-8
COc1ccc(-c2noc(N3CCCC(C(=O)Nc4ccccc4F)C3)n2)cc1 (stereo not given),-4,6,1.5,1.9,-2,-0.1,0.8,-6
Cn1ccnc1Sc1ccc(C(N)=O)cc1[N+](=O)[O-],-12,-13,5.1,-4.6,1,86*,0.3,-3
CC(=O)c1ccc(OC(=O)CCc2ccccc2)cc1,12,-7,1.5,0.0,-6,1.5,0.3,-4
COc1ccccc1C(=O)N/C(=C/c1ccc(Br)cc1)C(=O)NCC(=O)O,13,-20,1.3,8.7,-1,0.7,-0.5,4
COc1ccc(Oc2c(Cl)cnn(-c3ccc(Cl)c(Cl)c3)c2=O)cc1,34,-13,1.4,-0.5,-2,-7.3,-0.4,26
CCN(CC)S(=O)(=O)c1ccc(Cl)c(NC(=O)CSc2cccc[n+]2[O-])c1,-7,-8,3.0,4.4,1,-1.3,-0.1,5
Cc1cccc(NC(=O)CCNC(=O)c2ccco2)c1C,21,-11,-0.3,7.4,-6,-1.1,0.6,15
O=C(COC(=O)c1ccc2ncsc2c1)Nc1cc([N+](=O)[O-])ccc1Cl,.,.,1.8,.,0,0.8,-0.2,-5
CC(C)c1nnc(NC(=O)C2CCN(C(=O)Nc3ccc(Cl)cc3)CC2)s1,-1,-7,1.6,0.5,5,-5.2,0.4,-12
CSCc1ccc(C(=O)NC(C)c2cnn(-c3ccccn3)c2C)o1 (stereo not given),-2,-1,3.2,9.4,-6,-2.4,1.3,-12
Cc1cc(C(=O)NNC(=O)c2ccc(S(=O)(=O)N(C)C)cc2)c(C)o1,0,10,2.8,-0.7,.,-0.1,0.5,11
COc1ccccc1NC(=O)C1=C(C)Nc2nc(CCCO)nn2C1c1cccnc1 (stereo not given),-1,-1,2.5,-0.9,-4,0.0,1.1,0
C#CCOC(=O)CCC(=O)NCCc1ccccc1,-6,-2,1.2,-0.4,-10,3.1,-1.1,-4
O=[N+]([O-])c1ccc(S(=O)(=O)Nc2nnc(C(F)(F)F)s2)cc1,-8,6,8.5,-2.0,-9,-3.9,1.6,-7
CCn1c(NC(C)=O)c(-c2ccccc2Cl)c(=O)c2ccccc21,-3,-10,3.7,4.4,-1,7.0,0.2,7
O=C1CC(NS(=O)(=O)c2cccs2)CN1c1cccc(F)c1 (stereo not given),0,-15,1.2,2.2,2,0.9,-0.1,2
CCc1ccc(OCCOCC(O)CNC(C)CC)cc1 (stereo not given),-2,40,5.9,0.4,-3,0.9,0.6,74*
ON1C(c2ccccc2)CC2(O)c3nonc3CCC12 (stereo not given),4,-9,3.6,-0.4,-6,1.8,-0.2,4
O=c1c2ccccc2ncn1CCOc1ccccc1[N+](=O)[O-],7,4,3.2,-1.9,2,-2.4,-1.5,-12
COc1cccc(OCCNc2ccc([N+](=O)[O-])cn2)c1,.,.,7.3,.,-2,.,0.4,3
Cn1c(/C(C#N)=C(\O)CN2CCN(Cc3ccccc3)CC2)nc2ccccc21,3,12,1.2,1.8,-1,2.6,1.3,-15
CC(=O)C1=C(O)C(=O)N(CCNCCO)C1c1ccccc1 (stereo not given),4,-14,3.3,1.7,-5,2.3,0.7,11
Cc1cccc(C)c1NC(=O)CSc1nc(COc2ccccc2)nc2ccccc12,-12,1,10,-0.6,.,-5.6,-0.2,-16
CCc1ccc(NC(=S)NCc2ccccc2)cc1,8,-8,4.4,0.2,6,2.4,0.3,-1
Cc1cc(N/N=C/c2ccncc2)c([N+](=O)[O-])cc1[N+](=O)[O-],-9,1,.,0.3,5,3.0,0.2,2
Cc1ccc(S(=O)(=O)NC2CC(C)(C)NC(C)(C)C2)cc1,8,-3,-0.6,-3.1,-4,2.6,-0.4,-6
Fc1ccc(-c2csc(N3CCOCC3)n2)cc1,-5,2,0.1,-0.6,-4,1.1,0.5,2
CC(=O)c1csc(COc2ccc(Cl)cc2)n1,-2,1,2.9,-5.9,2,-2.0,-3.1,3
CCN(CC)c1ccc(C(=O)OCC(=O)Nc2cc(C)on2)cc1,.,.,-0.6,.,-2,2.6,-0.1,18
O=C(Cn1nnc(-c2ccc(CN3CCOCC3)cc2)n1)Nc1nc(-c2ccccc2)cs1,-2,9,5.9,-1.8,16,-1.2,-0.6,13
CC1CCN(C(=O)c2ccccc2NC(=O)Cc2ccccc2)CC1,-3,-11,2.8,9.3,-1,-4.8,-1.4,-10
O=S(=O)(Cc1ccccc1)/C1=C(\N2CCOCC2)CCCCCC1,-26,-12,0.2,1.0,-1,0.6,0.0,7
Cc1cc(C)c2nc(NC(=O)c3cc(C)on3)sc2c1,0,?,0.6,3.3,1,1.4,-0.4,-5
Cc1ccc(CNC(=O)c2cccnc2)cc1,1,6,0.3,21*,5,4.2,0.1,5
O=C(CNC(=O)c1ccco1)OCC(=O)c1ccc2c(c1)CCCC2,?,-19,1.5,?,-5,0.5,0.3,1
COc1ccc(CCNC(=O)c2cccnc2Cl)cc1OC,-6,-1,1.1,-1.3,-10,-8.7,-0.8,2
COc1cccc(N2C(=O)CC(Sc3nc(C)cc(C)n3)C2=O)c1 (stereo not given),2,-3,3.9,9.1,0,3.4,1.3,-8
Cc1c(NC(=S)NC(=O)c2ccc(Cl)cc2)c(=O)n(-c2ccccc2)n1C,0,-18,3.2,4.0,0,-0.7,-0.3,2
CCOc1c(/C=C(\C#N)C(N)=O)c2ccccc2n1CC,11,5,9.4,10,-19,2.1,0.7,-5
CCCOc1ccc(/C=N/NC(=O)c2ccc3c(c2)OCO3)c(OCCC)c1,3,-3,.,7.4,4,-0.5,0.7,16
CC(C)[C@H](NC(=O)OC(C)(C)C)C(=O)N1CCC(C(=O)N[C@@H](C)C(=O)Nc2ccc(F)cc2)CC1,-13,3,-0.7,4.2,-10,-1.7,0.3,-3
O=C(Nc1cc(N2CCOCC2)ncn1)c1ccc(F)cc1,-18,-1,1.3,0.5,-3,-0.5,-0.3,-8
COc1ccc(NC(=O)CCN2CCN(c3ccccc3F)CC2)c(OC)c1,0,-2,-1.8,-0.9,0,3.3,0.3,-7
CC(=O)c1cccc(NC(=O)N2CCCCCC2)c1,2,-1,-1.7,3.0,-3,2.0,0.4,6
Cc1ccc2nc(SCC(=O)N3CCCC3)[nH]c2c1,-7,-1,3.3,6.2,-7,3.3,0.1,4
COC(=O)NCC(c1ccco1)N1CCN(c2ccc(F)cc2)CC1 (stereo not given),-16,1,4.7,?,-7,1.5,1.0,-1
CCc1ccc(NC(=O)CSc2nc3nc(C)cc(C)n3n2)cc1,0,-9,2.2,0.4,-2,1.9,0.3,-15
COc1cccc(OCCCCCN2CCOCC2)c1,-13,.,-0.4,-2.2,-2,-1.4,-0.2,-6
Cc1ccc(C(=O)NNC(=O)c2ccc3c(c2)OCCO3)cc1,.,.,1.0,.,-9,4.7,-3.0,-8
CN1CCN(CCCC(=O)c2ccc(C3CCCC3)cc2)CC1,22,30,-8.8,-3.1,0,-0.7,0.2,0
COc1cc(NS(=O)(=O)c2ccc(NC(=O)Cc3ccccc3)cc2)nc(OC)n1,-3,-1,1.6,-1.9,-8,2.4,0.0,3
CCN1CCN(C(c2ccccn2)c2c(NC(=O)c3ccccc3)sc(C)c2C)CC1 (stereo not given),5,4,3.0,-4.5,-1,4.6,-1.1,-4
CCOC(=O)CC1=CSC2=NS(=O)(=O)CCN12,4,-11,0.8,-1.7,-9,3.6,-0.7,-2
c1ccc2c(Nc3ccc(N4CCOCC4)cc3)nc(N3CCOCC3)nc2c1,11,23,.,-0.7,10,-6.4,-0.5,3
Cc1ccc(C)c(C(=O)COC(=O)c2n[nH]c3ccccc23)c1,.,.,0.5,.,-6,-3.0,0.4,7
CC(C)CC(=O)N1CC(C)N(C(=O)CC(C)C)CC1C (stereo not given),-1,-14,-1.6,2.2,0,-1.4,0.3,.
COc1cccc(NC(=O)CSC(N)=O)c1,-6,-5,14,-3.1,-18,2.7,1.5,-2

(cont.)
compound,Calb FLC,T cruzi repl,UCH37 DUB inh,RanGTP-Imp inh,Beta apoptosis,LANA-H2A inh,A1 inh,B2AR ag
COc1cc(OC)cc(C(=O)OCC(=O)NCc2ccc3c(c2)OCO3)c1,-36,-9,3.7,.,-2,5.1,1.1,-4
CS(=O)(=O)Nc1nc2n(n1)C(c1ccccc1)CC(c1ccccc1)N2 (stereo not given),-6,15,3.0,-5.2,-9,-2.4,0.0,-1
Cc1nn(C(=O)c2c(-c3ccccc3)noc2C)c(C)c1N=Nc1cc(C(F)(F)F)cc(C(F)(F)F)c1,-3,4,7.6,1.0,5,-2.0,?,0
O=C1Nc2cc(C(=O)N3CCN(c4ccccn4)CC3)ccc2S/C1=C\c1ccccc1,1,0,-20,-3.8,-3,5.0,-0.6,-11
COc1ccc(N(CC(=O)NCCC2=CCCCC2)S(=O)(=O)c2ccccc2)c(OC)c1,-1,48,8.1,?,9,2.7,-0.1,3
CCOCCn1c(SCC(=O)OCc2ccccc2)nc2c1c(=O)[nH]c(=O)n2C,-5,-9,3.2,1.0,-6,0.1,-0.4,0
Cc1cccc(NC(=O)CN2C(=O)N/C(=C/c3ccc(C)o3)C2=O)c1,-4,-23,3.7,0.0,8,.,-0.7,9
Cc1cc(C(=O)O)ccc1-c1ccc(/C=C2\SC(=O)N(CC(=O)Nc3ccc4c(c3)OCO4)C2=O)o1,-17,.,.,.,11,6.6,-1.3,11
CN(C)CCCN(C(=O)c1ccc2c(c1)OCCO2)c1nc2ccc(Cl)cc2s1,-1,42,.,3.9,-11,-0.1,0.2,19
O=C(NC1CCC(c2ccccc2)CC1)c1cccnc1 (stereo not given),20,-9,0.2,5.1,0,-2.6,-0.4,-3
c1ccc(NC2=NCCCCS2)cc1,-10,-2,4.2,-1.7,-5,3.3,1.4,3

Assay outcomes: PubChem, several laboratories
